FGF22 binding – FGF22 (human) thermal shift binding; 340,000 tested, 1.5% active; recombinant FGF22 thermal shift, SYPRO orange fluorescence; percent of sucrose octasulfate shift, DMSO zero; calls only at 9.99 µM;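 active means melting point raised past a set limit in the mean and every replicate; inconclusive means no clear call; three in four hits are not shown here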
Target sequence (Q9HCT0 whole entry, looked up): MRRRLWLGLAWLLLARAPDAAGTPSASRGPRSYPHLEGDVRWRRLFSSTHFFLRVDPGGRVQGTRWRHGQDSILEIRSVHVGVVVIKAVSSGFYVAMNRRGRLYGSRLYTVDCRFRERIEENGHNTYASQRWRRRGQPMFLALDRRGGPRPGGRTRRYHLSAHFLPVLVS
MLL AF4-AF9 inh – inhibitors of human MLL-AF4/AF9 interaction; AlphaScreen, biotin-AF4 peptide binding to FLAG-AF9; inhibition, % at 10 µM; 350,000 tested, 0.47% active;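 active means every replicate reaching a set inhibition limit, whatever the replicate mean, cut at about 25% in these data; inconclusive means mean inhibition reaches that limit but some replicates miss it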;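 further: 0% = plate neutral control median and 100% = total signal loss; the record names both 10 and 1 µM as test concentration; the first replicate is given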
Target sequence (P42568 whole entry, looked up): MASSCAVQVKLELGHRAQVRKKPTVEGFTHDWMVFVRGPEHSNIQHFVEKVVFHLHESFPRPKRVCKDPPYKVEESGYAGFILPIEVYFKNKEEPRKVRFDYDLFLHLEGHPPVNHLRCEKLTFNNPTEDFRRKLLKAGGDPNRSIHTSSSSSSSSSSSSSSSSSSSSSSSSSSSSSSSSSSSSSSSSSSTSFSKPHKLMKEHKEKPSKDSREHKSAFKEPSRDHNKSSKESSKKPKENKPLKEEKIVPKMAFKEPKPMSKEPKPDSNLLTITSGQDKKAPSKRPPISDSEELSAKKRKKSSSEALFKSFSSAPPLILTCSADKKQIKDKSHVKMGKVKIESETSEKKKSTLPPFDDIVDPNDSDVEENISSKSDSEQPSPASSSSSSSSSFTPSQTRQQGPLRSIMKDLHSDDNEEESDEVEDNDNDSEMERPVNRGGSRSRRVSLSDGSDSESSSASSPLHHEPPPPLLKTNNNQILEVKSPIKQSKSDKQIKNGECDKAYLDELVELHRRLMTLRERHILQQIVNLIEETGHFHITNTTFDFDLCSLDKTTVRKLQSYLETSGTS
* marks the source's active call; other numbers are inactive results; i = inactive; ? = inconclusive. These rows are one share of the data, so the mix of outcomes need not match the whole.

Start of the listing, in advance:
FGF22 binding	MLL AF4-AF9 inh	SMILES
i	1.2	C[C@@H]1CN([C@H](C)CO)C(=O)c2cc(NC(=O)Cc3ccccc3)ccc2O[C@@H](C)CCCCO[C@H]1CN(C)S(=O)(=O)c1ccc(Cl)cc1
i	-1.6	COc1ccc(S(=O)(=O)N[C@@H]2CC[C@@H](CCn3cc(C(C)C)nn3)O[C@H]2CO)cc1
i	-1.1	COc1ccc(CNC(=O)C[C@@H]2C=C[C@H](NS(=O)(=O)c3cccc(OC)c3)[C@@H](CO)O2)cc1
i	-1.8	CNC[C@@H]1OCCCC[C@@H](C)Oc2ccc(NS(=O)(=O)c3ccccc3)cc2C(=O)N([C@H](C)CO)C[C@H]1C
i	-4.3	O=C(C[C@@H]1C[C@H]2c3cc(NC(=O)NC4CCCC4)ccc3O[C@H]2[C@H](CO)O1)NC1CCCC1

The list itself (from the top)
FGF22 binding	MLL AF4-AF9 inh	SMILES
i	1.2	C[C@@H]1CN([C@H](C)CO)C(=O)c2cc(NC(=O)Cc3ccccc3)ccc2O[C@@H](C)CCCCO[C@H]1CN(C)S(=O)(=O)c1ccc(Cl)cc1
i	-1.6	COc1ccc(S(=O)(=O)N[C@@H]2CC[C@@H](CCn3cc(C(C)C)nn3)O[C@H]2CO)cc1
i	-1.1	COc1ccc(CNC(=O)C[C@@H]2C=C[C@H](NS(=O)(=O)c3cccc(OC)c3)[C@@H](CO)O2)cc1
i	-1.8	CNC[C@@H]1OCCCC[C@@H](C)Oc2ccc(NS(=O)(=O)c3ccccc3)cc2C(=O)N([C@H](C)CO)C[C@H]1C
i	-4.3	O=C(C[C@@H]1C[C@H]2c3cc(NC(=O)NC4CCCC4)ccc3O[C@H]2[C@H](CO)O1)NC1CCCC1
i	0.1	O=C(C[C@H]1CC[C@@H](NC(=O)c2ccc3c(c2)OCO3)[C@H](CO)O1)NC1Cc2ccccc2C1
i	-1.6	Cc1ccc(S(=O)(=O)N(C)C[C@H]2Oc3c(NS(=O)(=O)c4ccccc4)cccc3C(=O)N([C@H](C)CO)C[C@H]2C)cc1
i	-1.0	C[C@@H]1CCCCO[C@@H](CN(C)Cc2ccccc2)[C@H](C)CN([C@@H](C)CO)C(=O)c2cc(NS(=O)(=O)c3ccccc3)ccc2O1
i	-1.6	O=C(N[C@H]1CC[C@H](CCn2cc(Cc3ccccc3)nn2)O[C@@H]1CO)c1cnccn1
i	1.6	O=C(NC1CCCC1)N[C@H]1CC[C@@H](CC(=O)N2CCOCC2)O[C@H]1CO

(list continues)
FGF22 binding	MLL AF4-AF9 inh	SMILES
i	-4.5	C[C@@H]1CCCCO[C@@H](CN(C)C(=O)Nc2ccc(F)cc2)[C@@H](C)CN([C@H](C)CO)C(=O)c2cc(NS(=O)(=O)c3cn(C)cn3)ccc2O1
i	-4.1	C/C=C/c1cnc2c(c1)C(=O)N([C@@H](C)CO)C[C@H](C)[C@H](CN(C)C(=O)c1cnccn1)O2
i	0.0	C[C@H](CO)N1C[C@H](C)[C@@H](CN(C)Cc2ccccc2)OCCCC[C@H](C)Oc2ccc(NS(C)(=O)=O)cc2C1=O
i	13	COc1cccc(NC(=O)Nc2ccc3c(c2)C(=O)N(C)C[C@@H](OC)[C@H](C)CN[C@@H](C)CO3)c1
i	-1.0	O=C(NCC[C@@H]1CC[C@H](NC(=O)C2CCCC2)[C@H](CO)O1)c1ccc(F)cc1
i	-3.0	CCCNC(=O)N1CC2(CCN(C(=O)C3CCCC3)CC2)c2c([nH]c3cc(OC)ccc23)[C@@H]1CO
i	0.3	Cc1noc(C)c1NC(=O)N[C@@H]1C=C[C@H](CC(=O)N2CCCCC2)O[C@@H]1CO
i	-8.7	Cc1ccc(S(=O)(=O)N[C@@H]2CC[C@@H](CCNC(=O)C3CCOCC3)O[C@H]2CO)cc1
i	1.4	COc1ccc(S(=O)(=O)Nc2ccc3c(c2)C(=O)N([C@H](C)CO)C[C@H](C)[C@H](CN(C)CC2CCCCC2)O3)cc1
i	-2.0	O=S(=O)(c1cccs1)N1CCCCN2[C@H](C1)[C@H](c1ccc(/C=C/c3ccccc3)cc1)[C@@H]2CO

More structures:
FGF22 binding	MLL AF4-AF9 inh	SMILES
i	-2.6	O=C(C[C@H]1CC[C@@H]2[C@H](COC[C@H](O)CN2Cc2nccs2)O1)NCc1ccc(F)cc1
i	-3.3	C/C=C/c1cnc2c(c1)C(=O)N([C@@H](C)CO)C[C@@H](C)[C@@H](CN(C)S(=O)(=O)c1cn(C)cn1)O2
i	-0.5	CCS(=O)(=O)NCC[C@H]1CC[C@H](NS(=O)(=O)c2cccc(F)c2)[C@@H](CO)O1
i	4.8	CC(C)CC#Cc1ccc([C@@H]2[C@H]3CN(C(=O)c4ccc5c(c4)OCO5)CCCCN3[C@H]2CO)cc1
i	1.6	C[C@@H]1CN([C@H](C)CO)S(=O)(=O)c2ccc(C#CCN(C)C)cc2O[C@H]1CN(C)Cc1ccncc1
i	2.0	C[C@@H]1CCCCO[C@@H](CN(C)Cc2ccc(Cl)c(Cl)c2)[C@@H](C)CN([C@@H](C)CO)C(=O)c2cc(NC(=O)C3CCCCC3)ccc2O1
i	-20	Cc1cccc(S(=O)(=O)N2C[C@@H](O)COC[C@@H]3O[C@@H](CC(=O)N4CCN(C)CC4)CC[C@H]32)c1
i	-2.8	COc1ccc(NC(=O)N[C@@H]2CC[C@H](CCNC(=O)CN3CCOCC3)O[C@H]2CO)cc1
i	7.0	COc1ccc(NC(=O)Nc2ccc3c(c2)C(=O)N([C@@H](C)CO)C[C@@H](C)[C@H](CN(C)C(=O)c2ccccc2)OCCCC[C@@H](C)O3)cc1
i	-1.1	CCCC#Cc1ccc2c(c1)O[C@@H](CN(C)C(C)=O)[C@H](C)CN([C@@H](C)CO)S2(=O)=O

Following part:
FGF22 binding	MLL AF4-AF9 inh	SMILES
i	-3.0	Cc1ccccc1-c1cnc2c(c1)C(=O)N([C@H](C)CO)C[C@H](C)[C@H](CN(C)Cc1ccccc1F)O2
i	-2.0	O=C(C[C@H]1CC[C@@H]2[C@H](COC[C@H](O)CN2Cc2cccc(Cl)c2)O1)N1CCOCC1
i	0.3	C=CCOC(=O)c1oc(COC[C@@H](NC(=O)N(C)Cc2ccccc2)c2ccccc2)c(C(=O)OC)c1C(=O)OC
i	1.6	C[C@@H](NC(=O)C[C@H]1C=C[C@@H](NC(=O)Cc2ccccn2)[C@@H](CO)O1)c1ccccc1
i	1.3	O=S(=O)(c1ccc(F)cc1)N1CCCCN2[C@@H](CO)[C@@H](c3ccc(C#CC4CC4)cc3)[C@@H]2C1
i	4.0	COc1cccc(NC(=O)N(C)C[C@H]2Oc3cc(C#CC4(O)CCCC4)ccc3S(=O)(=O)N([C@H](C)CO)C[C@H]2C)c1
i	-2.6	CN1c2ccc(-c3ccccc3F)cc2[C@@H]2[C@@H](CCN2C(=O)CN2CCOCC2)[C@@H]1CO
i	-4.8	COCC#Cc1ccc2c(c1)O[C@H](CN(C)C(=O)Nc1ccccc1F)[C@@H](C)CN([C@H](C)CO)S2(=O)=O
i	-0.5	COc1ccc(CN(C)C[C@@H]2Oc3c(NC(=O)C4CCOCC4)cccc3C(=O)N([C@@H](C)CO)C[C@H]2C)cc1
i	5.9	C[C@H](CO)N1C[C@H](C)[C@H](CN(C)C(=O)C2CCCCC2)Oc2ncc(C#CC3CCCCC3)cc2C1=O

Additional entries follow:
FGF22 binding	MLL AF4-AF9 inh	SMILES
i	-17	CS(=O)(=O)Nc1ccc2c(c1)[C@H]1C[C@H](CC(=O)N3CCOCC3)O[C@@H](CO)[C@H]1O2
i	3.6	C[C@H]1CN([C@@H](C)CO)C(=O)c2c(c3ccccc3n2C)-c2ccccc2CO[C@H]1CN(C)S(=O)(=O)c1ccccc1C#N
i	-0.5	CC(C)NC(=O)N(C)C[C@@H]1Oc2cc(C#Cc3cccc(F)c3)ccc2S(=O)(=O)N([C@@H](C)CO)C[C@H]1C
i	-2.5	CN1C(=O)c2cc(NC(=O)Nc3ccccc3F)ccc2OC[C@H]2O[C@@H](CC(=O)NCc3ccc(-c4ccccc4)cc3)CC[C@@H]21
i	-2.1	C/C=C/c1ccc2c(c1)O[C@@H](CN(C)C(=O)NC1CCCC1)[C@H](C)CN([C@H](C)CO)S2(=O)=O
i	3.6	Cc1noc(C)c1NC(=O)N(C)C[C@H]1Oc2c(NC(=O)Nc3ccc(F)cc3)cccc2C(=O)N([C@@H](C)CO)C[C@H]1C
i	-3.9	CCCC(=O)Nc1ccc2c(c1)OC[C@H](C)N(Cc1ccc(-c3ccccn3)cc1)C[C@@H](C)[C@H](OC)CN(C)C2=O
i	-1.2	O=C(C[C@@H]1C=C[C@@H](NC(=O)c2ccccc2)[C@@H](CO)O1)NCCc1ccncc1
i	-0.9	C[C@H]1CN([C@@H](C)CO)C(=O)c2cc(NS(=O)(=O)c3cn(C)cn3)ccc2O[C@H]1CN(C)S(C)(=O)=O
i	-1.0	O=C(C[C@H]1C=C[C@@H](NC(=O)Nc2ccc(F)cc2)[C@H](CO)O1)NCc1ccccn1

The results go on:
FGF22 binding	MLL AF4-AF9 inh	SMILES
i	2.9	C[C@H](O)C#Cc1ccc([C@@H]2[C@@H](CO)N3CCCCN(CC4CCOCC4)C[C@@H]23)cc1
i	-14	O=C(C1CCCCC1)N1CC2(C1)[C@H](c1ccccc1)[C@H](CO)N2Cc1ccccc1F
i	-0.9	O=C(C[C@@H]1CC[C@@H](NC(=O)Nc2cc(F)ccc2F)[C@H](CO)O1)Nc1ccccc1
i	-0.1	CN1CCCCN2[C@H](CO)[C@@H](c3ccc(C#CC4(O)CCCC4)cc3)[C@@H]2C1
i	6.6	COCC(=O)N1[C@H](CO)[C@@H](c2ccccc2-c2ccccc2F)[C@@H]1C#N
i	0.2	COc1ccc(CN(C)C[C@@H]2OCCCC[C@H](C)Oc3ccc(NS(=O)(=O)c4ccccc4)cc3C(=O)N([C@@H](C)CO)C[C@H]2C)cc1
i	-14	Cc1noc(C)c1S(=O)(=O)Nc1ccc2c(c1)C(=O)N([C@H](C)CO)C[C@H](C)[C@H](CN(C)S(=O)(=O)c1ccc(Cl)cc1)O2
i	-0.4	CCCC#Cc1ccc2c(c1)O[C@H](CN(C)C(=O)c1ccccn1)[C@H](C)CN([C@@H](C)CO)S2(=O)=O
i	-0.1	CCCC(=O)Nc1ccc2c(c1)C(=O)N(C)C[C@H](OC)[C@H](C)CN(Cc1ccccn1)[C@H](C)CO2
i	-3.9	COc1ccc(S(=O)(=O)Nc2ccc3c(c2)CC(=O)N([C@H](C)CO)C[C@@H](C)[C@@H](CN(C)Cc2ccc(C(=O)O)cc2)O3)cc1

Remaining list, next part
FGF22 binding	MLL AF4-AF9 inh	SMILES
i	-0.9	CCCCCCCCN1C(=O)[C@@H](CC(=O)NCCCN2CCCC2=O)C[C@@]2(C(=O)OC)C1=C[C@H](C1CCCC1)O[C@@H]2C
i	1.1	COCC(=O)Nc1ccc2c(c1)C(=O)N(C)C[C@@H](OC)[C@@H](C)CN(C(=O)c1ccccc1F)[C@@H](C)CO2
i	-1.7	Cc1ccc2nc3n(c(=O)c2c1)-c1ccccc1C(=O)NC3Cc1ccc(O)cc1 (configuration not stated)
i	-1.6	COc1ccccc1NC(=O)N[C@@H]1CC[C@@H](CC(=O)N[C@@H](C)c2ccccc2)O[C@H]1CO
i	-2.5	CCC(=O)N(C)C[C@H]1Oc2ncc(C#Cc3cccnc3)cc2C(=O)N([C@@H](C)CO)C[C@H]1C
i	4.3	Cc1noc(C)c1S(=O)(=O)Nc1ccc2c(c1)C(=O)N([C@@H](C)CO)C[C@@H](C)[C@@H](CN(C)Cc1ccc3c(c1)OCO3)OCCCC[C@@H](C)O2
i	0.6	CC(C)NC(=O)Nc1ccc2c(c1)C(=O)N([C@@H](C)CO)C[C@H](C)[C@@H](CN(C)S(=O)(=O)c1ccc(Cl)cc1)O2
i	?	COc1ccc(NC(=O)Nc2ccc3c(c2)C(=O)N([C@H](C)CO)C[C@H](C)[C@H](CN(C)CC2CC2)OCCCC[C@H](C)O3)cc1
i	-1.4	C[C@@H]1CCCCO[C@H](CN(C)S(=O)(=O)c2ccc(F)cc2)[C@@H](C)CN([C@H](C)CO)C(=O)c2cc(NC(=O)c3ccccc3)ccc2O1
i	3.6	COc1ccc(CN(C)C[C@@H]2OCCCC[C@H](C)Oc3ccc(NS(=O)(=O)c4ccc(OC)cc4)cc3C(=O)N([C@@H](C)CO)C[C@H]2C)cc1

(more compounds)
FGF22 binding	MLL AF4-AF9 inh	SMILES
i	6.4	C[C@@H]1CN([C@@H](C)CO)C(=O)c2cc(NS(=O)(=O)c3cccs3)ccc2O[C@@H]1CN(C)Cc1ccc(Oc2ccccc2)cc1
i	1.5	C[C@H](CO)N1C[C@H](C)[C@@H](CN(C)Cc2ccccc2)Oc2ncc(-c3ccccc3)cc2C1=O
i	1.5	COc1ccc2c3c([nH]c2c1)[C@@H](CO)N(Cc1cc(F)ccc1F)CC31CCN(C(=O)C2CCC2)CC1
i	0.8	CO[C@H]1CN(C)C(=O)c2cc(NC(C)=O)ccc2OC[C@H](C)N(C(=O)C2CC2)C[C@H]1C
i	-0.2	C[C@@H]1CN([C@@H](C)CO)C(=O)c2cc(NS(=O)(=O)c3cccs3)ccc2O[C@@H](C)CCCCO[C@@H]1CN(C)Cc1ccc(C(F)(F)F)cc1
i	2.0	C[C@H](CO)N1C[C@H](C)[C@H](CN(C)S(=O)(=O)c2ccccc2)Oc2ccc(NC(=O)Cn3cnnn3)cc2C1=O
i	1.7	Cc1ccc(S(=O)(=O)N(C)C[C@@H]2Oc3ccc(NC(=O)C4CCCCC4)cc3CC(=O)N([C@H](C)CO)C[C@@H]2C)cc1
i	0.8	O=C(c1cccnc1)N1C[C@@H]2[C@H](c3ccccc31)[C@@H](CO)N2C(=O)Nc1ccccc1

From PubChem BioAssay
